Screening results: PubChem, National Center for Advancing Translational Sciences (NCATS)
RE007 growth inh = less growth of the S. pombe RE007 Vpr strain; S. pombe RE007 Vpr strain, BacTiter-Glo ATP luminescence, 24 h; control for the full effect not named in the record; Potency, µM (top dose mostly 92.2 µM), without a hit: top-dose activity change, negative = less growth; actives 0.21% (n = 360,000); active = well fitted falling curve with a large enough effect; inconclusive = small, poorly fitted or top-dose-only effect; inactive = no such curve, though single readings can be large or run the other way;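 also: % is scaled to controls: 0 for no effect and ±100 for the full control effect; nearly all actives have a fitted effect of over 50% in size; the assay follows cell death caused by Vpr and the record does not say whether a fall means rescue or toxicity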
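Fission yeast RE007 carrying one integrated HIV-1 vpr copy, seeded at OD 0.01 in PMG+AL medium with 23 nL pinned compound. Grown 24 h at 30 degrees; viability read by BacTiter-Glo luminescence after 5 min.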
Cruzain Triton = inhibitors of Trypanosoma cruzi cruzain with detergent; purified cruzain, Z-FR-AMC fluorescence, 0.01% Triton; actives 0.43% (n = 200,000); Potency, µM, inactives show max response, negative = inhibition, most hits filed as inhibitors; P25779; active = well fitted curve in the direction sought with a large enough effect; inconclusive = small, poorly fitted or top-dose-only effect, or another doubt; inactive = no such curve, though single readings can be large; an effect the other way counts as inactive or inconclusive;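 also: plate controls were neutral wells for no effect and buffer without enzyme for full effect; nearly all actives have a fitted effect of over 40% in size; top concentration of the series not given in the record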
Target sequence (P25779 123-467 limits assumed): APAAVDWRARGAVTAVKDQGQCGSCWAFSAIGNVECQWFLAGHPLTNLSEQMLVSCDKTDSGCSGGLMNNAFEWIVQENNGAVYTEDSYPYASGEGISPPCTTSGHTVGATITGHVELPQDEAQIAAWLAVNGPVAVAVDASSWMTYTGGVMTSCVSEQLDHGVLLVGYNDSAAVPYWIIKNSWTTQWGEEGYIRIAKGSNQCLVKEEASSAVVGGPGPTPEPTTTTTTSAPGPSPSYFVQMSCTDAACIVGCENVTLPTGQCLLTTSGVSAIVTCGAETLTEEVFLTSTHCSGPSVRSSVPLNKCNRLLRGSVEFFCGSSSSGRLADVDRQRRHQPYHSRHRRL
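Read-out: AMC fluorescence (360 nm excitation, 450 nm emission), four reads over 2 min, first-to-third difference used. Conditions: cruzain 1.5 nM, Z-FR-AMC 2 uM, pH 5.5 acetate, 5 mM DTT, 0.01% Triton X-100.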
Marburg entry inh = inhibitors of Marburg virus binding or cell entry | Marburg virus pseudotyped entry inhibition, cell reporter; control for the full effect not named in the record; about a third of the inactives were read at about 46 µM | Potency, µM (doses to about 37.8 µM), without a hit: at the top dose activity change, negative = inhibition, most hits filed as inhibitors | actives 1.8% (n = 300,000) | AID 540276; active = well fitted inhibition curve with a large enough effect; inconclusive = small, poorly fitted or top-dose-only effect, or effect the other way; inactive = flat fitted curve, though single readings scatter; tested in HEK293 cells; about a fifth of its hits are not listed in these tables; also: % is scaled to controls: 0 for no effect and ±100 for the full control effect; luciferase read-out
SARS PLP yeast = blocks SARS-CoV papain-like protease in a yeast assay; S. cerevisiae expressing SARS-CoV PLpro, growth rescue; control for the full effect not named in the record; AID 485353; actives 0.19% (n = 330,000); Potency, µM (doses to about 32.9 µM), for the others: at the top dose activity, positive = growth rescue; also: 0% is about no effect; nearly all actives have a fitted effect of over 55% in size; growth read by luminescence after 48 h
NS1 function inh = influenza NS1 inhibition | S. cerevisiae slowed by influenza A NS1, growth recovery by OD600 | Potency, µM (top dose mostly 46.1 µM), for the others: at the highest dose activity, positive = more growth | actives 0.4% (n = 270,000) | AID 2326; also: actives are rising curves; nearly all actives have a fitted effect of over 50% in size
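S. cerevisiae expressing influenza A NS1, grown in glucose, washed, then diluted 1:100 into pH 6.0 -URA galactose medium with 23 nl compound. Growth recovery read as OD600; NS1-free strain serves as control.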
Lassa entry inh = inhibitors of Lassa virus binding or cell entry; Lassa virus pseudotype entry inhibition, cell reporter; control for the full effect not named in the record; Potency, µM (top dose mostly 37.9 µM), for inactives: at the highest dose activity change, negative = inhibition, most hits filed as inhibitors; actives 1.2% (n = 300,000); active means well fitted inhibition curve with a large enough effect; inconclusive means small, poorly fitted or top-dose-only effect, or effect the other way; inactive means flat fitted curve, though single readings scatter; tested in HEK293 cells; also: % is scaled to controls: 0 for no effect and ±100 for the full control effect; nearly all actives have a fitted effect of over 50% in size; luciferase read-out
2A StopGo = FMDV 2A StopGo reporter, luciferase signal; human cells with a luciferase reporter of 2A StopGo recoding; control for the full effect not named in the record; AID 1159524; Potency, µM (series often up to 57.9 µM), for inactives: top-dose signal change, negative = less light; actives 1.2% (n = 410,000); active = well fitted falling curve with a large enough effect; inconclusive = small, poorly fitted or top-dose-only effect; inactive = no such curve, though single readings can be large or run the other way; tested in HEK293T cells; also: % is scaled to controls: 0 for no effect and ±100 for the full control effect; nearly all actives have a fitted effect of over 45% in size; luciferase light after 4 h
Cruzain inh noDet = cruzain (T. cruzi) inhibition without detergent; P25779; Potency, µM, for the others: max response, negative = inhibition, most hits filed as inhibitors; actives 2.3% (n = 200,000); purified cruzain, Z-FR-AMC fluorescence, no detergent; active = well fitted curve in the direction sought with a large enough effect; inconclusive = small, poorly fitted or top-dose-only effect, or another doubt; inactive = no such curve, though single readings can be large; an effect the other way counts as inactive or inconclusive;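 also: plate controls were enzyme without inhibitor for no effect and buffer without enzyme for full effect; nearly all actives have a fitted effect of over 40% in size; top concentration of the series not given in the record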
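Purified cruzain at 1.5 nM, pre-incubated 15 min with compound at room temperature in 100 mM sodium acetate pH 5.5, 5 mM DTT, 0.00005% Triton X-100. Reaction started with 2 uM Z-FR-AMC; AMC fluorescence increase over 60 s gives rate.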
Numbers without * were called inactive; u = inconclusive; x = no result given; [ ] = another dose, or the depositor's remark. Unless noted, calls follow the shape of the dose curve; as a rule, active means well fitted rising curve with a large enough effect; inconclusive means small, poorly fitted or top-dose-only effect; inactive means no such curve, though single readings can be large or run the other way. Potency is read from the fitted curve at half-maximal effect. Outcome played no part in choosing rows, and some 4.6% of all compounds hit somewhere here.

SMILES | RE007 growth inh | Cruzain Triton | Marburg entry inh | SARS PLP yeast | NS1 function inh | Lassa entry inh | 2A StopGo | Cruzain inh noDet
CC[C@]12c3[nH]c4ccc(OC)cc4c3CCN1C(=O)C(CC(=O)NC/C=C(\C)CCC=C(C)C)C[C@@H]2C(=O)N1CCN(C(=O)C2CC2)CC1 (stereo not given in full) | -11% | x | 0% | 14% | x | x | -20% | x
COc1ccc(C(=O)Nc2ncc3c(n2)CC(C)CC3=O)cc1 (stereo not given) | -7% | x | -10%[46.1 µM] | -5% | 3% | -3%[46.1 µM] | 20% | x
O=C(c1ccco1)N1CCN(C2c3ccccc3-c3ccccc32)CC1 | 6% | x | u | -7% | -45% | u | -22% | x
O=C1NC(=O)C2(CCC(C(=O)O)C2)N1 (stereo not given) | 19% | 0.9% | 16% | 13% | -6% | 18% | -1% | -3%
CCC(Sc1nc(C)cc(=O)[nH]1)C(=O)Nc1sc2c(c1C#N)CCCC2 (stereo not given) | 1% | -1.4% | -14% | 10% | 7% | 2% | x | -4%
COCCOc1ccc(C(F)(F)F)cc1NC(=O)COC(=O)c1ccc(N2CCCC2=O)cc1 | 6% | x | -22% | 5% | x | -4% | -4% | x
CCN(C(=O)c1ccc(S(=O)(=O)N2CCCCC2)cc1)C1CCS(=O)(=O)C1 (stereo not given) | 4% | x | 16% | 8% | x | 14% | u | x
O=C(CSc1nnc(Cc2ccccc2)n1-c1ccc(Cl)cc1)N1CCOCC1 | -4% | 8.2% | 23% | 4% | -8% | 5% | -1% | u
Cc1ccc(Nc2nn3c(=O)c4cc5c(cc4nc3s2)OCO5)cc1Cl | x | -0.3% | u | x | x | 3%[46.1 µM] | -10% | -4%
COc1ccc(C(=O)Nc2ccc(S(=O)(=O)NCc3ccco3)cc2)cc1OC | -7% | -6.9% | 6% | -3% | 10% | -4% | 60%[activator] | -1%
CCC(=O)c1ccc(OCC(=O)Nc2nc(-c3cccnc3)cs2)cc1 | -4% | x | 2% | -5% | x | u | 0% | x
Cc1ccc(Cn2c(C)c(CNCc3ccccc3F)c(C(=O)O)c2C)cc1 | x | -3.1% | 14%[46.1 µM] | x | x | 0%[46.1 µM] | -23% | 1%
CC(C)c1nnc(N2C(=O)c3oc4ccccc4c(=O)c3C2c2ccccc2F)s1 (stereo not given) | x | -1.0% | -2%[46.1 µM] | x | x | -2%[46.1 µM] | -19% | -1%
O=c1[nH]c2ccccc2c(=O)n1-c1ccc(Cl)cc1Cl | -4% | x | 4% | -7% | x | u | -4% | x
O=C(NCCC1=CCCCC1)C1CC(=O)N(Cc2ccccc2)C1 (stereo not given) | -20% | x | -3% | -3% | 1% | 13% | -13% | x
O=C(C[n+]1cccc(NC(=O)c2ccccc2)c1)c1ccccc1 | 9% | 3.7% | -3% | 19% | 17% | -7% | 0% | 0%
CC(=O)c1ccc(OCCCC(=O)N2CCN(S(=O)(=O)c3cc(C)ccc3C)CC2)cc1 | 8% | x | u | 0% | x | u | u | x
COc1ccc(-c2cc(C(F)F)n3ncc(C(=O)Nc4ccc(C(=O)N5CCOCC5)cc4)c3n2)cc1 | 10% | x | x | 0% | 1% | x | -18% | x
CC1CN(C(=O)c2cc3cc([N+](=O)[O-])ccc3oc2=O)CC(C)O1 (stereo not given) | 12% | x | 5%[46.1 µM] | 0% | 2% | 11% | -9% | x
Cc1ccc(S(=O)(=O)c2ccc(-n3nc(C)cc3N)cc2)cc1 | 8% | x | -22%[46.1 µM] | -1% | x | -16%[46.1 µM] | -7% | x
COc1ccc(S(=O)(=O)NCC(c2ccco2)N2CCN(c3ccccc3)CC2)cc1OC (stereo not given) | x | -2.9% | x | x | x | -6%[46.1 µM] | 14% | -6%
Cc1ccc(S(=O)(=O)NCCC(=O)OCC(=O)N2CCCC2=O)cc1 | 1% | x | -2% | -6% | x | -10% | -16% | x
COc1ccc(S(=O)(=O)N2CCOCC2)cc1NC(=O)COC(=O)c1ccc([N+](=O)[O-])s1 | 21% | x | 2% | -9% | x | u | -7% | x
CC(C)c1ccccc1-n1c(SCC(=O)c2ccc3c(c2)NC(=O)CO3)nc2ccccc2c1=O | 19% | x | u | 0% | 10% | u | u | x
Cc1cc(C)cc(NC(=O)C(Cc2ccccc2)NS(=O)(=O)c2ccc3c(c2)CCC(=O)N3)c1 (stereo not given) | x | 0.5% | 3%[46.1 µM] | x | x | 3%[46.1 µM] | -24% | 5%
Cc1cccc(CSC2=NCCN2C(=O)C2CC2)c1 | -27% | 3.4% | 2%[46.1 µM] | -11% | 1% | 4% | -19% | 8%
O=C(c1ccc(CNc2c(NC3CCCCC3)c(=O)c2=O)cc1)N1CCc2ccccc21 | 1% | -1.0% | x | 6% | 25% | x | 42%[activator] | u
COc1ccccc1N=Cc1c(C)c(C#N)c2[nH]c3ccccc3n2c1=O | -8% | x | u | 0% | 1% | 18% | -6% | x
CCOC(=O)c1ccc(NC(=O)CCOc2ccc(C)cc2)cc1 | 2% | 4.4% | -4% | -2% | -1% | 1% | -9% | 4%
COc1ccc(C(=O)Nc2ccc(C(=O)N3CCC(C)CC3)cc2)cc1OC | 15% | x | -1%[46.1 µM] | -2% | -4% | -3% | 13% | x
O=C(OC(C(=O)NC1CCCCC1)c1ccccn1)c1cccs1 (stereo not given) | 14% | 1.0% | 2% | 1% | -49% | 15% | 23% | 2%
COC(=O)c1cc(S(=O)(=O)Nc2cccc(C)c2C)cn1C | -17% | x | x | 5% | 4% | x | u | x
CCOC(=O)c1c(NC(=S)Nc2cc([N+](=O)[O-])ccc2OC)sc2c1CCCCC2 | x | -5.6% | 8% | 24% | 22% | x | x | 13µM*
N=C1C(c2nc3ccccc3[nH]2)=C(O)CN1c1ccc(F)cc1 | -9% | -3.2% | 15% | -4% | -10% | 11% | 46%[activator] | -15%
COCCCNC(=S)NNC(=O)c1csc(C)n1 | 1% | x | x | 5% | 4% | x | -10% | x
O=C(NCCN1CCOCC1)C(Sc1ccccc1)c1ccccc1 (stereo not given) | -1% | x | u | 0% | 2% | -12% | -4% | x
Cc1ccc(-c2noc(-c3ccccc3F)n2)cc1 | 4% | x | u | 0% | x | u | -24% | x
O=C(N=C1SC2CS(=O)(=O)CC2N1c1ccc(Cl)c(Cl)c1)C1CCCO1 (stereo not given) | -17% | x | 19%[46.1 µM] | -1% | 2% | 2%[46.1 µM] | 21% | x
CCc1cccc(NS(=O)(=O)c2ccc3c(c2)NC(=O)CC(=O)N3)c1 | 12% | x | -8% | -1% | x | -1% | -3% | x
CSc1nc(C)cc(SCCO)n1 | -3% | -2.1% | 3% | 1% | -3% | u | 10% | 2%
N/C(=N\OC(=O)c1cccc(F)c1)c1ccccn1 | u | x | x | -8% | -27% | x | 55% | x
COc1ccc(NC(=O)n2ncc3c(C)cccc32)cc1OC | -18% | x | x | -2% | -5% | x | 66%[activator] | x
CCOC(=O)c1c(S(=O)(=O)NCC(=O)N(C)c2ccc(C)cc2)c(C)n(C)c1C | x | 0.0% | x | x | x | 4%[46.1 µM] | -3% | 7%
CCCCC(=O)N/N=C/c1c(O)n(CCC2=CCCCC2)c(=O)[nH]c1=O | 24% | x | x | 4% | -13% | x | 6% | x
O=C(COc1ccc(Cl)cc1Cl)Nc1nnc(C2=COCCO2)o1 | -11% | x | u | 0% | x | 8%[46.1 µM] | -1% | x
COc1cc(C(=O)COC(=O)c2cccs2)cc(OC)c1OC | -7% | x | -4% | 6% | x | 4% | -18% | x
COC(=O)c1cc(C(=O)OCC(=O)NC2CCCC2)cc([N+](=O)[O-])c1 | 0% | x | x | 0% | 7% | x | -14% | x
COc1ccc(OC)c(CNC(=O)C2CCN(S(=O)(=O)N3CCCC3)CC2)c1 | 4% | 2.0% | 3% | -9% | -9% | -3% | x | -8%
COC(=O)c1ccccc1NS(=O)(=O)c1cc2c(cc1C)N(C)CCO2 | x | -1.7% | x | x | x | 10µM* | 79%[activator] | 4%
COC(=O)c1ccc(NS(=O)(=O)c2ccc3[nH]c(=O)oc3c2)cc1 | -2% | x | 4%[46.1 µM] | 1% | -3% | 5% | 16% | x
Cc1ccccc1C(=O)OCc1cc(=O)n2nc(C3CCCCC3)sc2n1 | x | -4.3% | x | x | x | u | 0% | -13%
COc1ccccc1C(=O)NCCC(=O)N(C)Cc1ccc(C)o1 | 1% | x | 0%[46.1 µM] | u | -6% | -12%[46.1 µM] | -4% | x
CCOC(=O)c1cnc(NCc2ccc(Cl)cc2)c2ccccc12 | x | -7.6% | x | x | x | u | -16% | 7%
CC(=O)Nc1ccc(NC(=O)CSC2=NS(=O)(=O)c3ccccc3N2)cc1 | -13% | x | 2%[46.1 µM] | -1% | x | 11% | -7% | x
COc1ccc(NC(=O)c2cc(S(=O)(=O)N3CCCCC3)c[nH]2)c(OC)c1 | -23% | x | x | 5% | 9% | x | -21% | x
O=C(NCCc1nc2ccccc2n1Cc1ccc(Cl)cc1Cl)c1ccco1 | x | -23% | u | x | x | u | 0% | 16%
CCOC(=O)[C@@]1(C#N)[C@@H]2C=CC(C(N)=O)=CN2[C@@H](C(N)=O)[C@@H]1c1cccc(Cl)c1 | -7% | -7.3% | -15% | -9% | 14% | -5% | -9% | -4%
CCN1/C(=C/C=C/C=C/c2sc3ccccc3[n+]2CC)Sc2ccccc21 | x | u | 4.6µM* | -75% | 4% | 1.8µM* | x | u
CCCN(C(=O)c1noc2c1COc1ccc(C)cc1-2)c1ccc(Cl)c(Cl)c1 | x | 1.1% | x | x | x | 6%[46.1 µM] | -21% | 18%
CC(CCN1C(Nc2ccccc2)=NC[C@@H]1C)c1ccccc1 (stereo not given in full) | -1% | x | x | -4% | -20% | x | -10% | x
COc1ccc(S(=O)CC(=O)Nc2ccc(Cl)cc2Cl)cc1 (stereo not given) | 2% | x | u | 0% | -2% | 2% | -10% | x
CCS(=O)(=O)c1ccc2oc(SCC(=O)NCCc3ccccc3)nc2c1 | -5% | x | u | -1% | -2% | -23% | -10% | x
